Rce1 inhib – yeast Rce1p protease inhibitors, primary screen, biochemical, fluorescence, cell-free homogeneous; CAAX prenyl protease 2 (Saccharomyces cerevisiae (strain ATCC 204508 / S288c)), Q03530; yeast membranes, quenched prenylated peptide cleavage fluorescence; calls only; actives 0.27% (n = 290,000); AID 2563, 2010;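 active = fall in fluorescence gain of 50% or more versus controls, with final raw signal at or below 3038400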;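 also: plate controls were neutral control wells for no effect and wells lacking membranes for full effect; tested at 10 µM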
Target sequence (Q03530 whole entry, looked up): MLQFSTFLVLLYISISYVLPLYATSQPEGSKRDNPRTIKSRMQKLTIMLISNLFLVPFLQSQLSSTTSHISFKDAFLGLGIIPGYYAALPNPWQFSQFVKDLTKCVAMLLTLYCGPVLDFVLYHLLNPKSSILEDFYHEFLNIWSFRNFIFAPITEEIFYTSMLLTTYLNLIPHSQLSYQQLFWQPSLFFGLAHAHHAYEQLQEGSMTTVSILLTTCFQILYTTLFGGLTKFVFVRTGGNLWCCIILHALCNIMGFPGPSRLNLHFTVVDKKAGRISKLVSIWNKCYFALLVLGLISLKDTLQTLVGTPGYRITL
HIV Env fusion – inhibitors of HIV-1 Env-driven cell-cell fusion, primary screen, HeLa-JRFL effector, CEM21 target cells, luciferase; AID 651610, 2012; inhibition, % at 12.3 µM; actives 1.1% (n = 360,000);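 active = mean replicate inhibition score of at least 50 and every replicate individually at or above 50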;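 also: 0% = plate neutral controls and 100% = maraviroc near 300 nM; one replicate is shown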
MT1-MMP act inh – blockers of MT1-MMP proenzyme processing, primary screen, HT1080 RFP-PRO-GFP cells, GFP/RFP fluorescence. Matrix metalloproteinase-14 (Homo sapiens), P50281. GFP/RFP ratio fluorescence, overnight; percent of plate control window, DMSO zero. GFP/RFP ratio change, % at 20 µM. actives 0.061% (n = 360,000);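 active = GFP/RFP ratio change of at least 30% with cell ATP level not reduced by more than half and red fluorescence within 50% of control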; also: strong numbers were not always called active
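Test system: HT1080 RFP-PRO-GFP cells; Benchmarks: DMSO and RFP-L50D-GFP cell wells; Timing: cells overnight before dosing, compound overnight, 37 °C, 5% CO2; Compound: one 20 µM compound dose with 1% DMSO; Read-out: GFP/RFP fluorescence ratio.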
CSC inhib – cancer stem cell viability inhibitors, primary screen, luminescence | cancer stem cell-like cells viability | inhibition, % at 7.5 µM | actives 1.1% (n = 300,000) | AID 2717, 2010;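 active = mean at 75% or more and at least half the replicates too; tested in HMLE shEcad cells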;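 also: 0% = median of negative and 100% = median of positive control wells; the first replicate is given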
eIF4H FP inh – human eIF4H binding inhibitors, primary screen, translation initiation inhibitor project, biochemical, uHTS, fluorescence polarization; eIF4H fluorescence polarization binding assay; inhibition, % at 35 µM; Eukaryotic translation initiation factor 4H (Homo sapiens), Q15056; actives 0.94% (n = 290,000);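 active = 50% or more with normal probe brightness, or confirmed in later tests; about a fifth of its hits are not listed in these tables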;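 also: calls also rest on retests at 20 µM and on dose response follow-up; 0% = protein and probe with vehicle and 100% = probe without protein; strong numbers were not always called active; many hits fall short of the cut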
PABP polyA inh – PABP poly(A) RNA binding inhibitors, primary screen, biochemical, fluorescence polarization, uHTS; Polyadenylate-binding protein 1 (Homo sapiens), P11940; inhibition, % at 35 µM; actives 1% (n = 290,000); AID 2014, 2009;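 active = 50% or more with normal probe brightness, or confirmed in later tests; about a fifth of its hits are not listed in these tables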;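 also: calls also rest on retests at 20 µM and on dose response follow-up; controls were probe without protein and protein plus probe with vehicle; some compounds called inactive have numbers as strong as hits; many hits fall short of the cut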
Target sequence (P11940 whole entry, looked up): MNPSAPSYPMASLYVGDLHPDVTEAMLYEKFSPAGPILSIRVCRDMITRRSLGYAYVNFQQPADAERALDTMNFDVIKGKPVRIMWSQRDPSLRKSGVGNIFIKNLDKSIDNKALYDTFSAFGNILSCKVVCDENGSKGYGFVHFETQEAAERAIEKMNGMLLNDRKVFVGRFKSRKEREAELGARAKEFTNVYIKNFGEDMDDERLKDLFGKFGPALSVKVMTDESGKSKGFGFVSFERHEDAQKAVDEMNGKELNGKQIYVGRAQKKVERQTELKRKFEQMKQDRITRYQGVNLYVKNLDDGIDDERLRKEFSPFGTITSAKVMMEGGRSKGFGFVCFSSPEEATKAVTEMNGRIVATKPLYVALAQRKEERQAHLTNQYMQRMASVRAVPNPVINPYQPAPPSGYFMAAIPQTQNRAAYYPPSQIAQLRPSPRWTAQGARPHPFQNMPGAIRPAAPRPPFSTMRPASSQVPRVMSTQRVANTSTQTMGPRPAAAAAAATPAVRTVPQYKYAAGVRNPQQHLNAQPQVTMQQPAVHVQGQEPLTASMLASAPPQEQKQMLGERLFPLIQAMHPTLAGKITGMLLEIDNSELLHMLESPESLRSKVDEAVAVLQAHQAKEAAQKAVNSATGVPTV
UUG fidelity – modulators of yeast start codon fidelity, primary screen, whole organism, S. cerevisiae, single point, plate reader; S. cerevisiae UUG-firefly luciferase reporter, luminescence/redox ratio; activity score, % at 18.7 µM; actives 0.13% (n = 350,000);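 active = replicate mean at a twofold rise or more, about +100% in these data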;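 also: firefly luciferase made from a UUG start codon reports start codon fidelity; reporter light over untreated wells divided by growth signal over untreated wells; some hits fall short of that in this replicate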
eIF4H FP inh retest – second read-out of eIF4H FP inh, no call of its own (marks repeat the call); inhibition, %; compound at 20 µM; confirmation average;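 mean of two retest wells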
PABP polyA inh retest – recorded beside PABP polyA inh, whose call it bears; inhibition, %; compound at 20 µM; confirmation repeats;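 mean of two retest wells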
MT1-MMP act inh RFP – also measured in MT1-MMP act inh; calls as there; RFP signal change, %; measured here: RFP expression control read;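 0 = vehicle wells; hits needed this value within 50% of zero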
Starred values were filed as active, the others as inactive; i = inactive; x = no result given; & = joins results of further samples. Only part of the results is shown; the hit share may differ from the screen's.

SMILES	Rce1 inhib	HIV Env fusion	MT1-MMP act inh	MT1-MMP act inh RFP	CSC inhib	eIF4H FP inh	PABP polyA inh	UUG fidelity	others
Cc1nc2ccccc2n1CC(=O)OCC(=O)Nc1ccc2c(c1)OCCO2	i	x	5	6	5	-7	-3	-22
COc1nc(N)c(S(=O)(=O)c2ccccc2C)cc1C#N	x	-10	-6	-1	-14	-6	-8	5
O=S(=O)(NCCCN1CCOCC1)c1ccc(Cl)s1	i	3	-1	0	1	2	5	x
Cc1ccsc1C(=O)Nc1ccccc1N1CCOCC1	i	12	-6	-5	-14	-9	-7	-16
Cc1c(C)c(C)c(S(=O)(=O)NCCC(=O)N2CCN(Cc3ccc(C#N)cc3)CC2)c(C)c1C	x	x	2	-23	-7	x	x	0
Cc1c(NC2(c3nnnn3-c3ccc(Br)cc3)CCCCC2)c(=O)n(-c2ccccc2)n1C	i	-26	-9	-10	-14	-9	2	-19
Cc1ccc(N(C)C(=O)CC(C)S(=O)(=O)c2ccc3c(c2)NC(=O)CO3)cc1 (stereo not drawn)	i	1	0	1	-13	-6	3	-6
NC(=O)C1=C[C@H](c2ccc(C(F)(F)F)cc2)C[C@H](OCCCCO)O1	i	-14	4	6	-6	-7	2	2
O=C(Nc1ccccc1)N1CCN(c2ncccn2)CC1	i	-44	-2	2	3	-4	-4	-2
COc1ccc(C(=O)Nc2ccc3c(c2)nc(CCNC(=O)c2ccco2)n3C)cc1	i	-1	-2	-1	-8	-13	-4	-21
N#Cc1c(-c2cccnc2)cc(-c2ccccc2)nc1N	i	43	2	-1	-8	1	-8	-14
Cc1cccn2c(CNCCSc3nccn3C)c(C(=O)N3CCCCC3)nc12	i	9	0	1	6	-6	4	-12
CC(C)Oc1ccc(CCc2n[nH]c(=S)n2Cc2ccccc2)cc1	i	x	1	-7	-13	3	8	-16
Cc1cc(C)cc(C(=O)NC(CC(N)=O)c2ccc(N3CCC(Cc4ccccc4)CC3)c([N+](=O)[O-])c2)c1 (stereo not drawn)	i	-11	7	3	52	-12	16	-3
O=S(=O)(c1ccc(Cl)cc1)N1CCCN(c2ccc(C(F)(F)F)cn2)CC1	i	37	6	1	4	0	-3	x
O=C(COC(=O)c1cnccn1)Nc1ccccc1-c1ccccc1	x	x	6	0	12	x	x	-2
N#CCCn1cnc2c(=S)nc[nH]c21	i	x	8	2	2	-6	4	-11
Cc1nc2nc(Cc3ccccc3)nn2c(C)c1Cl	i	-22	3	0	8	7	6	-15
N#Cc1ccc(COC(=O)c2cnc(Cl)c(Cl)c2)cc1	i	-4	0	1	1	-7	-6	-7
COc1ccc(CC(=O)N2CCN=C2SC)cc1	i	-8	-2	7	-9	1	-1	-10
Cc1ccc(-c2ccc(/C=C(\C#N)C(=O)Nc3cc(C)nn3-c3ccccc3)o2)cc1	i	x	x	x	37	25	-1	x
CCCN(CCC)CCCNC(=O)c1ccc2c(Cl)c3c(nc2c1)CCC3	i	-10	-1	0	14	-8	14	-15
NS(=O)(=O)c1ccc(CNC(=O)C2(c3ccc(Cl)cc3)CC2)cc1	i	-3	0	-4	-8	4	-25	-12
CCc1[nH]nc(C(=O)N2CCCC(Nc3ccc(C(C)C)cc3)C2)c1C (stereo not drawn)	i	0	-5	-5	-20	-13	-2	-4
O=C(NN=Cc1ccccc1C(=O)O)c1ccc(NS(=O)(=O)c2cccs2)cc1	x	-5	-4	2	-1	x	x	-20
SMILES	Rce1 inhib	HIV Env fusion	MT1-MMP act inh	MT1-MMP act inh RFP	CSC inhib	eIF4H FP inh	PABP polyA inh	UUG fidelity	others
O=C(Nc1cccc([N+](=O)[O-])c1)Nc1ccc(Cl)cn1	i	-15	-4	-4	-9	-8	-6	x
O=C(C1CCCN(c2ncccn2)C1)N1CCc2ccccc21 (stereo not drawn)	i	-23	-1	-2	-6	-9	-7	-8
COCCNc1nnc(SCC(=O)NC2CCCCC2)s1	x	x	-5	3	-14	x	x	-10
O=S1(=O)c2c(F)cccc2OC(COc2ccccc2)CN1CCc1ccc(F)cc1 (stereo not drawn)	x	6	-3	-10	x	x	x	-23
Cc1ccnc(NS(=O)(=O)c2ccc3c(c2)CCO3)c1	i	-3	x	x	-3	-4	-4	x
COc1ccccc1NC(=O)C1=C(C)Nc2nnnn2C1c1ccccc1OC (stereo not drawn)	i	x	1	2	-8	5	-10	-21
NS(=O)(=O)c1cccc(NC(=O)CSc2nnc(-c3ccccc3F)n2C2CC2)c1	i	7	-11	-11	-16	7	2	17
CCC(SC1=N/C(=C/c2ccccc2OC)C(=O)N1c1ccccc1)C(=O)Nc1cc(C)on1 (stereo not drawn)	i	x	-15	-13	6	-6	-6	0
CCOc1cc(/C=N/Nc2nc(-c3cccc(S(=O)(=O)N4CCCC4)c3)cs2)ccc1O	i	-10	1	-3	1	-2	-2	x
C[C@@H]1CN([C@H](C)CO)C(=O)CCCn2nncc2CO[C@H]1CN(C)C(=O)CCC(F)(F)F	x	5	4	8	x	x	x	-15&-5
C=CCN=C1S/C(=C\c2ccc(Cl)cc2)C(=O)N1CC=C	i	15	2	-7	5	1	-1	-13
O=C(N/N=C/c1ccccc1C(F)(F)F)c1ccc2nc[nH]c2c1	i	-14	3	-2	1	-2	3	-24
C/C(=C\c1ccccc1)C(=O)NCc1ccco1	i	6	4	9	14	-2	3	x
CCCN(CC1CC1)C(=S)Nc1ccc(C(C)=O)cc1	i	-10	2	5	-1	-2	-7	-18
Cc1ccccc1Cn1cccc1/C=C1/C(=N)N2C=CSC2=NC1=O	i	x	-3	1	15	66*	100*	-20
O=C(Nc1cccc2[nH]ncc12)c1ccc(F)cc1	i	74*	-14	-8	-14	-5	-2	-17
COCCN1CC(=O)N(c2cccc(C)c2C)C(c2ccc(Cl)cc2)C1=O (stereo not drawn)	i	-36	-2	-1	-9	-9	-5	-12
COc1ccc(S(=O)(=O)N(C)CC(=O)NCc2cccnc2)cc1OC	i	x	-2	3	-4	-11	4	-6
COc1cccc(NC(=S)N(CCC(C)C)C2CCN(C(C)=O)CC2)c1	i	-4	2	3	0	8	-10	-26
Cc1cc(C(F)(F)F)nn1CC(=O)N1CCCCC1C (stereo not drawn)	i	x	-3	0	-11	-2	-4	x
O=C(CCC(=O)N(CC(=O)NC1CCCCC1)Cc1ccc(F)cc1)Nc1nccs1	i	8	-1	-1	15	16	-8	-12
CN(CCc1ccccn1)C(=O)c1ccc(OC2CCN(CCc3ccccc3)CC2)cc1	i	21	0	1	23	-1	0	-18
CC(=O)NN1C(=O)c2ccccc2NC1c1ccc([N+](=O)[O-])o1 (stereo not drawn)	i	9	0	-2	-8	8	-9	6
O=[N+]([O-])c1ccc(-n2cccn2)c(-c2nn[nH]n2)c1	x	-23	1	4	-8	1	-8	x
COc1ccc(CCNC(=O)CSc2ccc3nnc(CCNC(=O)c4ccccc4)n3n2)cc1OC	i	-13	0	4	-15	4	11	-13
SMILES	Rce1 inhib	HIV Env fusion	MT1-MMP act inh	MT1-MMP act inh RFP	CSC inhib	eIF4H FP inh	PABP polyA inh	UUG fidelity	others
CCOc1ccc(OCC)c(NC(=O)C2CCN(S(=O)(=O)c3cccc4nonc34)CC2)c1	i	x	-4	-4	-3	-2	0	-4
CCOC(=O)N/N=C/c1cccnc1	i	-6	-8	-5	-9	-1	4	x
CCOc1ccccc1N1CCN(C(=O)CC(C)C)CC1	i	-6	4	8	-1	-8	-11	-7
CN(C)C(=O)CSc1nnc(-c2ccncc2)n1Cc1ccco1	i	-3	0	3	-14	3	-8	x
CCc1cccc(NC(=O)Cn2c(=O)oc3cc(S(=O)(=O)N4CCOCC4)ccc32)c1	i	15	-4	-26	-5	-2	-1	-6
CCn1c(SCC(=O)c2c[nH]c3ccccc23)nnc1-c1cccs1	i	x	-17	-3	40	123	113	-10	eIF4H FP inh retest=-6;PABP polyA inh retest=4
COc1ccc(Cc2nnc(Nc3ccc(C)cc3)o2)cc1OC	i	48	-2	4	21	-5	6	-20
O=C(Cn1c(NCCCO)nc2ccccc21)c1ccc([N+](=O)[O-])cc1	i	-1	5	4	-11	1	7	2
O=C(c1cscn1)N1CCCC(N2CCN(c3ccc(F)cc3)CC2)C1 (stereo not drawn)	i	4	-1	1	0	-13	-6	-7
Cc1cc(C)c(NC(=O)Cn2c(=O)n(-c3ccc(CC(=O)NCC4CCCO4)cc3)c(=O)c3ccccc32)c(C)c1 (stereo not drawn)	i	3	2	-2	-6	26	-9	x
CC(C)COc1ccc(-c2nnc(-c3ccco3)o2)cc1	i	-165	4	0	-3	-2	-5	-46
CCC(C)NCCCCOc1ccc(Br)cc1 (stereo not drawn)	i	-5	4	2	31	9	2	x
CC1CC(C)(C)NC(=S)N1CC(=O)N(C)Cc1ccccc1 (stereo not drawn)	i	-12	-1	3	x	7	24	x
CCN(CC(=O)Nc1cccc(OC)c1)C(=O)C1CCN(C(=O)Nc2ccccc2)CC1	i	11	1	5	-3	-2	-1	19
Cc1ccc(NC(=O)CN(C)C(=O)COC(=O)/C=C/c2cccs2)cc1	i	-3	-1	1	-1	x	x	x
Cc1ccc2[nH]c(=O)c(-c3nc4cc(C)ccn4c3NCc3ccco3)cc2c1	i	x	-5	-8	-6	8	24	-6
Cc1cccc(OCC(=O)Nc2ccc(N3CCN(C(=O)c4ccco4)CC3)cc2)c1	i	x	2	-19	16	-12	-10	-16
COc1cccc(/C=C/C(=O)Nc2ccc(OC)nc2)c1	i	-153	2	2	x	30	2	4
COc1ccc(C2C(C(=O)c3sc(C)nc3C)=C(O)C(=O)N2CCN(C)C)cc1OC (stereo not drawn)	i	x	2	0	-9	-11	-10	-1
O=C(CCCCCN1C(=O)c2ccccc2C1=O)NC1CCCC1	i	x	2	2	-1	-11	-2	8
Cc1ccc(NC(=O)CN(C)C(=O)Cc2ccc(Cl)cc2Cl)cc1	i	17	5	3	-5	-14	-14	-8
COc1ccc(NC(=O)c2nnn(Cc3cccc(F)c3)c2N)c(OC)c1	i	-7	-1	-2	63	-7	6	-9
CC1CC(=O)Nc2ccccc2S1(=O)=O (stereo not drawn)	i	x	-1	0	x	-6	-11	-12
COC(=O)c1cc(S(=O)(=O)NCc2ccccc2)cn1C	i	21	1	-1	x	-6	7	-4
COc1ccc(C)cc1-n1nc2ccccc2n1	i	-4	1	1	13	-1	-4	-13
COCCN(CCOC)Cc1cc(=O)oc2cc3c(cc12)CCC3	i	1	1	-1	1	4	15	2
COc1ccc(Cl)cc1C(=O)N(Cc1nc(-c2cccc(C)c2)no1)C(C)C	i	20	3	-7	6	-4	-6	-3

Grouped by structure: those above with bromine (two)
SMILES	Rce1 inhib	HIV Env fusion	MT1-MMP act inh	MT1-MMP act inh RFP	CSC inhib	eIF4H FP inh	PABP polyA inh	UUG fidelity	others
Cc1c(NC2(c3nnnn3-c3ccc(Br)cc3)CCCCC2)c(=O)n(-c2ccccc2)n1C	i	-26	-9	-10	-14	-9	2	-19
CCC(C)NCCCCOc1ccc(Br)cc1 (stereo not drawn)	i	-5	4	2	31	9	2	x

Screens deposited in PubChem BioAssay by several laboratories.
